A1 inh – inhibitors of A1. caspase activation, % (test concentration not listed). MEF A1-2A-BIM cells, caspase-Glo luminescence, 3 h; percent of clofoctol signal, DMSO as zero. actives 0.51% (n = 21,000);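 active = most replicate scores above 10, or exactly half above 10 with mean activity above 10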;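 also: effector caspase 3 and 7 activity cleaving a DEVD luciferin substrate; 50 nL library stock added to about 30 µL; numbers are from one replicate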
BJeLR viab HTS – lowers viability of BJeLR cells | viability loss activity score, % (concentration not given with the values) | actives 0.64% (n = 30,000) | BJeLR fibroblasts viability, CellTiterGlo ATP luminescence, 48 h; HRASV12, hTERT and SV40 LT/ST transformed; in the data active = viability loss activity score above about 50%; about a fifth of its hits are not listed in these tables;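 also: higher score means fewer live cells and less ATP luminescence; stock transfer was 50 or 100 nL into about 30 µL; 0% = vehicle wells and 100% = a reference killing control; one replicate is shown; the record names a cut of 85%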
* = called active by the depositor; · = not tested or not shown. Some of the compounds tested. The share of hits here may be higher or lower than overall.

Screens in order: A1 inh, BJeLR viab HTS
> Cc1ccc(S(=O)(=O)Nc2ccc3c(c2)C(=O)N([C@H](C)CO)C[C@@H](C)[C@@H](CN(C)S(=O)(=O)c2c(C)noc2C)O3)cc1
  -0.6, -1.0
> C[C@@H]1CN([C@@H](C)CO)C(=O)c2cccc(NC(=O)Nc3ccc(F)cc3)c2O[C@H]1CN(C)S(=O)(=O)c1ccc(F)cc1
  ·, -3.1
> C[C@@H]1CN([C@@H](C)CO)C(=O)c2cccc(NS(=O)(=O)c3ccc(Cl)cc3)c2O[C@@H]1CN(C)Cc1ccc(C(F)(F)F)cc1
  ·, 3.7
> C[C@@H]1CN([C@H](C)CO)C(=O)c2cccc(NC(=O)Nc3ccc(C(F)(F)F)cc3)c2O[C@H]1CN(C)S(=O)(=O)c1cccs1
  ·, 4.6
> CCCCN1C(=O)[C@H]2Cc3c([nH]c4ccccc34)[C@H](c3ccc(OC)cc3)N2C1=O
  -1.4, 30
> CCOc1ccc(NC(=O)C2CCN(S(=O)(=O)c3cnc[nH]3)CC2)cc1
  ·, -6.1
> FC(F)(F)c1cccc(OCc2ccc(-c3ncns3)cc2)c1
  -0.9, 4.8
> O=C(CSc1nc2ccccc2n1S(=O)(=O)c1ccc(Cl)cc1)NCCc1ccccc1
  0.0, 0.1
> Cc1ccccc1NCC(=O)NN
  ·, -2.5
> C[C@H]1CN([C@@H](C)CO)C(=O)c2cccc(NC(=O)Nc3ccc(F)cc3)c2O[C@H]1CN(C)S(=O)(=O)c1cn(C)cn1
  ·, -1.2
> O=C(CCNc1ccc(Cl)c(C(F)(F)F)c1)c1ccccc1
  0.3, 0.9
> C[C@@H]1CN([C@@H](C)CO)C(=O)c2cc(NC(=O)CCCN(C)C)ccc2O[C@H]1CN(C)S(=O)(=O)c1ccc(Cl)cc1
  0.1, -0.4
> COc1ccc(CCO[C@@H]2O[C@H](CO[C@@H]3OC[C@H](O)[C@H](O)[C@H]3O)[C@@H](OC(=O)/C=C/c3ccc(O)c(OC)c3)[C@H](O[C@@H]3O[C@@H](C)[C@H](O)[C@@H](O)[C@H]3O)[C@H]2O)cc1O
  -0.2, 2.5
> COc1ccc(S(=O)(=O)Nc2ccc3c(c2)C(=O)N([C@@H](C)CO)C[C@@H](C)[C@@H](CN(C)C(=O)Nc2cccc4ccccc24)O3)cc1
  -0.2, -1.1
> C[C@H]1CN([C@@H](C)CO)C(=O)c2cc(NC(=O)CCCCCC(=O)Nc3ccccc3N)ccc2O[C@@H]1CN(C)S(=O)(=O)c1ccc(F)cc1
  ·, 0.9
> COc1ccc(NC(=O)Nc2ccc3c(c2)C(=O)N([C@H](C)CO)C[C@H](C)[C@H](CN(C)Cc2ccc(-c4ccccc4)cc2)O3)cc1
  1.6, 3.9
> CN(C(=O)Cn1nc(C(F)(F)F)c2c1CCCC2)c1ccccc1
  1.9, -1.4
> CCC(NCC(O)Cn1c2ccccc2c2ccccc21)C(=O)O (stereo not given)
  ·, -1.1
> Cc1ccc(S(=O)(=O)N(C)C[C@H]2Oc3c(NC(=O)Nc4ccccc4)cccc3C(=O)N([C@H](C)CO)C[C@@H]2C)cc1
  ·, 4.1
> O=C1Nc2ccccc2N(O)N1c1cc(-c2ccccc2Cl)no1
  -6.3, 0.9
> COC(=O)Cc1nc(-c2ccc(F)cc2)sc1C
  -0.7, 3.0
> C[C@H]1CN([C@@H](C)CO)C(=O)c2cccc(NC(=O)C3CCCCC3)c2O[C@H]1CN(C)CC1CCCCC1
  ·, 0.3
> O=C(Nc1cccc(-c2nnco2)c1)c1ccc(C(F)(F)F)cc1
  -0.3, 1.6
> COc1cc2c(cc1OC)C1C(C)C(=O)C3=C(CSCC3=O)N1CC2 (stereo not given)
  0.2, -8.1
> N#Cc1nc(-c2ccccc2)oc1NCCCN1CCOCC1
  -1.1, -1.8
> S=c1[nH]nc(Cn2nnc3ccccc32)o1
  0.2, -1.2
> CSc1c(-c2ccc(Cl)cc2)[nH]c2ccccc12
  14*, 2.0
> C[C@H](CO)N1C[C@H](C)[C@H](CN(C)S(=O)(=O)c2ccc(F)cc2)Oc2ccc(NC(=O)Cc3cn(C)c4ccccc34)cc2C1=O
  -0.6, -0.7
> C[C@@H]1CN([C@H](C)CO)C(=O)c2cccc(NC(=O)c3nc4ccccc4s3)c2O[C@@H]1CN(C)S(=O)(=O)c1ccc(Cl)cc1
  ·, -1.8
> O=C(O)c1ccccc1S(=O)c1ccc(Cl)cc1 (stereo not given)
  0.7, -1.7
> C[C@@H]1CN([C@@H](C)CO)C(=O)c2cccc(NC(=O)NC3CCCCC3)c2O[C@H]1CN(C)S(=O)(=O)c1cn(C)cn1
  ·, -7.8
> CC(C)NC(=O)Nc1cccc2c1O[C@@H](CN(C)C(=O)Nc1ccc3c(c1)OCO3)[C@H](C)CN([C@H](C)CO)C2=O
  ·, 1.1
> Cc1ccc(S(=O)(=O)Nc2cccc3c2O[C@H](CN(C)Cc2ccc4c(c2)OCO4)[C@H](C)CN([C@H](C)CO)C3=O)cc1
  ·, 0.9
> CC1(C)CC(=O)C2=C(C1)Oc1ccccc1C2CC(=O)c1cccs1 (stereo not given)
  -0.1, -4.4
> C[C@@H]1CN([C@@H](C)CO)C(=O)c2cc(NC(=O)Nc3ccccc3)ccc2O[C@@H]1CN(C)CC1CCCCC1
  -0.5, 0.9
> Oc1cc2c(cc1O)C(c1ccccc1)CNCC2 (stereo not given)
  -0.2, -5.2
> C[C@H](CO)N1C[C@H](C)[C@H](CN(C)C(=O)Nc2ccc3c(c2)OCO3)Oc2c(NS(=O)(=O)c3ccccc3)cccc2C1=O
  ·, 1.8
> CNC[C@H]1Oc2ccc(NC(=O)CCN3CCOCC3)cc2C(=O)N([C@H](C)CO)C[C@@H]1C
  -0.2, 7.1
> COc1ccc(C(=O)NC23CC4CC(CC(C4)C2)C3)cc1
  0.0, -0.3
> O=C(O)c1cccc(N2C(=O)CSC2c2ccccc2)c1 (stereo not given)
  0.8, 3.3

No new results follow: two of the compounds above.
Screens in order: A1 inh, BJeLR viab HTS
> S=c1[nH]nc(Cn2nnc3ccccc32)o1
  0.2, -1.2
> CSc1c(-c2ccc(Cl)cc2)[nH]c2ccccc12
  14*, 2.0

Next entries:
Screens in order: A1 inh, BJeLR viab HTS
> CC(C)NC(=O)N(C)C[C@H]1Oc2ccc(NS(=O)(=O)c3cn(C)cn3)cc2C(=O)N([C@H](C)CO)C[C@H]1C
  0.2, -1.7
> Cc1ccccc1C1NC(c2ccccc2C)C(C)C(=O)C1C (stereo not given)
  -0.3, -7.6
> C[C@H](CO)N1C[C@H](C)[C@H](CN(C)Cc2ccc3c(c2)OCO3)Oc2c(NC(=O)Nc3cccc4ccccc34)cccc2C1=O
  ·, 1.8
> O=C(c1ccco1)N1CCc2sccc2C1c1ccc(OC(F)(F)F)cc1 (stereo not given)
  -0.1, -0.9
> COc1cc(/C=C2/C(=O)ON=C2c2ccccc2)ccc1O
  1.1, 0.9
> COc1c(OC/C=C(\C)CC2C=C(C)C(=O)O2)ccc2ccc(=O)oc12 (stereo not given)
  0.5, 7.4
> Cc1ccc(S(=O)(=O)N(C)C[C@H]2Oc3c(NS(=O)(=O)c4ccc(F)cc4)cccc3C(=O)N([C@H](C)CO)C[C@H]2C)cc1
  ·, 2.7
> C[C@@H]1CN([C@@H](C)CO)C(=O)c2cccc(NC(=O)Nc3cccc4ccccc34)c2O[C@H]1CN(C)CC1CC1
  ·, -6.7
> CCOC(=O)CN1C(=O)S/C(=C/c2ccc3c(c2)n(C)c(=O)n3C)C1=O
  0.4, 0.8
> Cc1ccc(S(=O)(=O)Nc2cccc3c2O[C@@H](CN(C)C(=O)NC(C)C)[C@@H](C)CN([C@@H](C)CO)C3=O)cc1
  ·, -3.7
> C[C@H](CO)N1C[C@H](C)[C@@H](CN(C)C)Oc2c(NC(=O)c3ccc(-c4nccs4)cc3)cccc2C1=O
  ·, -2.1
> CN(C)c1ccc(-n2cccc2/C=N/n2cnnc2)cc1
  -0.3, 3.0
> Nc1ccc2c3c(cccc13)C(=O)NC2=O
  1.5, 7.4
> CN(Cc1ccccc1)C(=O)c1ccc2c(c1)OCO2
  0.8, 2.9
> CCOC(=O)c1cc(-c2csc(CS(C)(=O)=O)n2)on1
  0.4, 1.4
> N#CCSc1ccc2nnc(-c3ccncc3)n2n1
  0.1, -0.4
> C[C@@H]1CN([C@@H](C)CO)C(=O)c2cc(NC(=O)Nc3ccc(C(F)(F)F)cc3)ccc2O[C@@H]1CN(C)Cc1ccncc1
  -1.2, -2.4
> CC(C)NC(=O)c1cc(C(C)C)on1
  ·, 0.9
> Cc1cc(S(=O)(=O)NC2CCCCNC2=O)c(C)s1 (stereo not given)
  1.9, 1.1
> CC1(C)CC(=O)C2=C(C1)Nc1ccc3ccccc3c1C2c1cccnc1 (stereo not given)
  0.6, -3.4

3 compounds already listed, ordered by the number in A1 inh, smallest number first:
structure	A1 inh
C[C@@H]1CN([C@@H](C)CO)C(=O)c2cc(NC(=O)Nc3ccc(C(F)(F)F)cc3)ccc2O[C@@H]1CN(C)Cc1ccncc1	-1.2
CN(C)c1ccc(-n2cccc2/C=N/n2cnnc2)cc1	-0.3
CCOC(=O)c1cc(-c2csc(CS(C)(=O)=O)n2)on1	0.4

Other structures:
Screens in order: A1 inh, BJeLR viab HTS
> C[C@@H]1CN([C@H](C)CO)C(=O)c2cccc(NC(=O)c3nc4ccccc4s3)c2O[C@@H]1CN(C)CC1CCCCC1
  ·, -1.9
> CCC(C)n1c(SCc2ccccc2Cl)nc2ccsc2c1=O (stereo not given)
  0.8, 19
> C[C@@H]1CN([C@H](C)CO)C(=O)c2cc(NC(=O)Nc3cccc4ccccc34)ccc2O[C@@H]1CN(C)Cc1ccc(C(F)(F)F)cc1
  -0.6, 0.2
> Cc1ccc(S(=O)(=O)Nc2cccc3c2O[C@H](CN(C)S(=O)(=O)c2ccc(Cl)cc2)[C@@H](C)CN([C@@H](C)CO)C3=O)cc1
  ·, -3.5
> CCC(C)C1NC(=S)N(C2CCCCC2)C1=O (stereo not given)
  0.7, 2.1
> C[C@H]1CN([C@@H](C)CO)C(=O)c2cccc(NC(=O)c3ccncc3)c2O[C@@H]1CN(C)C(=O)NC1CCCCC1
  ·, -1.3
> CCn1c(C(=O)NCc2ccccc2)cc2oc3ccccc3c21
  0.7, 19
> C[C@H]1CN([C@@H](C)CO)C(=O)c2cc(NC(=O)Nc3ccc4c(c3)OCO4)ccc2O[C@H]1CN(C)C(=O)Nc1cccc2ccccc12
  0.8, -2.3
> CC1(C)OC2C(CO)OC(n3cnc4c(=O)[nH]cnc43)C2O1 (stereo not given)
  -0.6, 2.2
> O=C(/C=C/c1ccc(O)cc1)NCCc1ccc(O)cc1
  0.1, -2.1
> COc1ccccc1C(=O)N/C(=C\c1ccccc1)C(=O)N1CCOCC1
  -0.5, 1.7
> CC(C)NC(=O)N(C)C[C@H]1Oc2c(NS(C)(=O)=O)cccc2C(=O)N([C@H](C)CO)C[C@H]1C
  ·, -1.0
> CNC(=O)NC(=O)CSc1nnc(-c2ccco2)o1
  0.0, -2.8
> C[C@@H]1CN([C@H](C)CO)C(=O)c2cc(NC(=O)c3ccncc3)ccc2O[C@@H]1CN(C)Cc1ccc(C(F)(F)F)cc1
  0.1, 0.6
> C[C@H](CO)N1C[C@H](C)[C@@H](CN(C)Cc2ccc(-c3ccccc3)cc2)Oc2c(NC(=O)Nc3cccc4ccccc34)cccc2C1=O
  ·, 0.3
> O=c1cc(O)c2sc3nc4c(c(C(F)(F)F)c3c2[nH]1)CCCCC4
  0.1, -0.1
> Cc1ccc(C(=O)NCCN2CCNC2=O)cc1
  0.6, 4.0
> CC1CC(C)(C)NC(=S)N1CCC(=O)N1c2ccccc2CC1C (stereo not given)
  ·, -4.6
> COc1cc2c(N3C(=O)CCC3=O)c3c(=O)oc(C)cn3c2cc1OC
  -0.1, 0.3
> Cc1ccc(S(=O)(=O)Nc2cccc3c2O[C@H](CN(C)Cc2ccc(Oc4ccccc4)cc2)[C@H](C)CN([C@H](C)CO)C3=O)cc1
  ·, -0.1
> Cc1oc(-c2cccc(Cl)c2)nc1CSc1nc2c(c(=O)[nH]1)CCCC2
  0.3, 0.4
> C[C@@H]1CN([C@H](C)CO)C(=O)c2cccc(NC(=O)C3CCCCC3)c2O[C@H]1CN(C)Cc1ccncc1
  ·, -0.5
> c1ccc(-c2nn3c(-c4ccccc4)nnc3c3ccccc23)cc1
  ·, -0.6
> Cc1cc(C)c2c(CC(=O)Nc3c(C(=O)c4ccccc4)oc4ccccc34)coc2c1
  0.0, -3.9
> O=C(CC(Sc1ccc(Cl)cc1)c1ccc(Cl)cc1)C1CC1 (stereo not given)
  1.3, 2.2
> COc1ccc(NC(=O)N(C)C[C@@H]2Oc3c(cccc3N(C)C)C(=O)N([C@H](C)CO)C[C@@H]2C)cc1
  ·, 3.2
> COc1ccc(C(=O)NC(=S)Nc2ccc3[nH]c(=O)[nH]c3c2)cc1OC
  -0.1, 2.1
> COc1ccc(NC(=O)N(C)C[C@@H]2Oc3ccc(NC(=O)CCCCCC(=O)Nc4ccccc4N)cc3C(=O)N([C@H](C)CO)C[C@@H]2C)cc1
  ·, -4.5
> CC(=O)NC(C(=O)O[C@H]1CCC(C)(C)[C@@H]2CC=C3C(=O)OCC3(O)[C@@]12C)C(C)C (stereo not given in full)
  0.4, 1.0
> CC1CCCCC1NC(=O)c1cnn2c(C(F)(F)F)cc(-c3ccccc3)nc12 (stereo not given)
  -0.2, 2.4

Looked up by structure from the entries so far:
Screens in order: A1 inh, BJeLR viab HTS
> COc1ccc(C(=O)NC(=S)Nc2ccc3[nH]c(=O)[nH]c3c2)cc1OC
  -0.1, 2.1
> O=C(CC(Sc1ccc(Cl)cc1)c1ccc(Cl)cc1)C1CC1 (stereo not given)
  1.3, 2.2

Compound activity from PubChem BioAssay.
